H5N1 CPE: MDCK cell protection from H5N1 avian flu; cytopathic effect, luminescence, 72 h; active compounds read high; no value below 0 was filed and about half of the inactive calls have no number; reference of the scale not given here; inhibition, % at 50 µM; 0.07% of 96,000 active; AID 740, 2007; in the data active = inhibition above about 25%
Starred values were filed as active, the others as inactive; i = inactive. These rows are one share of the data, so the mix of outcomes need not match the whole.

SMILES	H5N1 CPE
CCC1CCCCN1C(=O)Nc1ccc(F)cc1 (stereo not drawn)	0.1
O=C(O)c1ccccc1-c1ccc(/C=c2\sc3nc4cc(Br)cnc4n3c2=O)o1	0.2
CCCc1nc(N)c(C#N)c(-c2ccco2)c1CC	4.7
COC(=O)c1cc(NC(=O)c2c(Cl)nc3sccn23)cc(C(=O)OC)c1	1.3
Cc1ccc(S(=O)(=O)Nc2nncs2)cc1	i
O=C(NCC1(c2ccccc2)CCCC1)c1cccc(Br)c1	4.6
O=C(Nc1cc(N2CCOCC2)ncn1)Nc1cccc2ccccc12	i
CC(C)(C)C(=O)/C=C(N)/C=C/c1ccccc1	i
COc1ccccc1OCCn1c(CO)nc2ccccc21	i
CCSc1nnc(-c2cc3c(s2)-c2ccccc2CC3)o1	0.8
Cc1cc(C)c2c(n1)SCC(=O)N2CC(=O)NCCC1=CCCCC1	1.9
O=[N+]([O-])c1ccc(NC(=S)N/C(=N/CS(=O)(=O)c2ccccc2)c2ccccc2)cc1	i
Cc1ccc(NC(=S)N2CCC(N(C)CC3CCCO3)CC2)c(C)c1 (stereo not drawn)	i
CCN=c1sc2ccccc2n1CC(O)COc1ccccc1 (stereo not drawn)	0.0
CCOC(=O)C1CCN(Cc2ccc(F)c(F)c2)CC1	i
COC(=O)c1ccc(CSCC(=O)Nc2cc(OC)cc(OC)c2)o1	i
COc1ccccc1CNC(=O)CCc1nc2ccccc2c(=O)[nH]1	i
COc1cc(C=O)ccc1OCCOCCOc1ccc(Cl)cc1	i
Cc1ccc(C)c(NC(=O)c2ccccc2O)c1	i
O=C(O)c1cc2c(ccc3ccccc32)[nH]1	i
O=C1/C(=C/c2cc([N+](=O)[O-])ccc2Cl)N2CCC1CC2	1.5
COc1ccc(C2C(C(C)=O)=C(C)N=c3s/c(=C\c4cc(C)n(C)c4C)c(=O)n32)c(OC)c1 (stereo not drawn)	i
Cc1cccc(OCCCC(=O)Nc2ccc(N3CCCCC3)cc2)c1C	i
CCOC(=O)c1c(N)n(Cc2ccccc2)c2nc3ccccc3nc12	i
CCNC(=S)NS(=O)(=O)c1ccc(Cl)cc1	0.6

An excerpt of these results, as comma-separated lines:
Compound,H5N1 CPE
Cc1ccc(C)c(NC(=O)c2ccccc2O)c1,i
O=C(O)c1cc2c(ccc3ccccc32)[nH]1,i
O=C1/C(=C/c2cc([N+](=O)[O-])ccc2Cl)N2CCC1CC2,1.5
COc1ccc(C2C(C(C)=O)=C(C)N=c3s/c(=C\c4cc(C)n(C)c4C)c(=O)n32)c(OC)c1 (stereo not drawn),i
Cc1cccc(OCCCC(=O)Nc2ccc(N3CCCCC3)cc2)c1C,i
CCOC(=O)c1c(N)n(Cc2ccccc2)c2nc3ccccc3nc12,i
CCNC(=S)NS(=O)(=O)c1ccc(Cl)cc1,0.6

More results.
SMILES	H5N1 CPE
COc1ccc(NC(=S)NCCc2ccc(Cl)cc2)c(OC)c1	i
COCCCNC(=O)c1ccc(Cn2c(=O)c3ccccc3n(Cc3cc(C)ccc3C)c2=O)cc1	0.9
Cc1cccn2c(=O)c3cc(C#N)c(=O)n(CC4CCCO4)c3nc12 (stereo not drawn)	5.5
CSCc1c(C(=O)Nc2ccc(N3CCOCC3)cc2)oc2ccccc12	i
O=C(NCCCN1CCOCC1)c1ccc(S(=O)(=O)N2CCOCC2)cc1	i
NCC1(c2ccc3c(c2)OCCO3)CCCC1	0.2
CCC(=O)Nc1ccc(C(=O)CSc2nnc(CNc3ccc(Cl)cc3)o2)cc1OC	0.1
C=CC(=O)NC(C)(C)Cc1ccccc1	i
CCOC(=O)C1CCCN(c2c(NCCCN(C)Cc3ccccc3)c(=O)c2=O)C1 (stereo not drawn)	0.6
CS(=O)(=O)N1CCN(C(=O)c2cc(-c3ccccc3)nc3ccccc23)CC1	i
O=C(OCCCN1CCCCC1)c1ccc(O)cc1	0.8
O=C(COc1ncnc2c(Cl)cc(Cl)cc12)N1CCCCC1	i
CCOC(=O)C1CCCN(c2c(NCCCN(CC)c3ccccc3)c(=O)c2=O)C1 (stereo not drawn)	1.0
CCCN1C2CCCC1CC(NC(=O)c1ccccc1OCC)C2 (stereo not drawn)	i
O=C(CCn1nc(-c2ccccc2)c2ccccc2c1=O)NCC1CCCO1 (stereo not drawn)	i
CCCc1nnc(NC(=O)C(CC)OC(=O)c2cc(C)nc3ccccc23)s1 (stereo not drawn)	0.4
CCOc1ncccc1C(=O)OCC(=O)Nc1cc(C)ccc1C	0.1
O=C(NNC(=S)NC(=O)c1cccnc1)c1ccc(Cl)cc1	7.5
Cc1nn(C)c(N)c1C(O)(c1nccn1C)C(F)(F)F (stereo not drawn)	0.2
CCCC(C(=O)NC1CCCC1)N(CC1CCCO1)C(=O)c1snc(C(N)=O)c1N (stereo not drawn)	i
O=C(Nc1sccc1C(=O)N1CCOCC1)c1cccnc1	0.2
CCCc1c(C)[nH]c2ccc(NC(C)=O)cc2c1=O	1.4
COCCN1C(=O)C(O)=C(C(C)=O)C1c1ccc(F)cc1 (stereo not drawn)	0.6
Cc1cc2oc(=O)cc(CSc3nc(N)cc(N)n3)c2cc1C(C)C	1.0
O=C(NC(=S)NCc1ccccc1)C1CCCCC1	0.5
Later entries.
SMILES	H5N1 CPE
COc1cc2c(cc1OC)C1Cc3ccc(OC)c(OC)c3CN1CC2 (stereo not drawn)	0.0
O=C(/C=C/c1ccc(Cl)cc1Cl)NCCN1CCOCC1	i
O=c1c(Cl)nc2cc(Cl)ccc2n1CCNc1ncc(C(F)(F)F)cc1Cl	i
Cc1cc(-c2nnc(SCc3cccnc3)o2)no1	2.7
COC(=O)C(CC(C)C)NC(=O)C(N)Cc1ccccc1 (stereo not drawn)	0.8
CC1(C)NC(=O)N(CC(=O)Nc2nc(-c3ccc(F)cc3)cs2)C1=O	i
Cc1ccc(NC(=O)NC2CCN(CC(=O)Nc3nccs3)CC2)cc1	0.1
COc1ccc(NC(=S)NC(NC(=O)c2ccccc2Cl)C(Cl)(Cl)Cl)c([N+](=O)[O-])c1 (stereo not drawn)	0.3
CC(C)(C)c1ccc(C(=O)CC(=O)c2cc(Cl)ccc2O)cc1	i
CCOC(=O)NC(Nc1cc(C)ccn1)(C(F)(F)F)C(F)(F)F	i
CCCNC(=O)Nc1nccs1	i
Cc1cccc(N/C(N)=N/c2nc(C)cc(C)n2)c1	i
CN1CCC(OC(=O)COc2ccccc2)CC1	0.0
CCCCNC(=O)COC(=O)c1ccc(Cl)c(S(=O)(=O)N2CCCC2)c1	0.3
COc1ccc(NC(=O)c2cccc(OC(F)F)c2)cc1Cl	i
CCOC(=O)C1=C(C)NC(=O)NC1c1ccoc1 (stereo not drawn)	0.5
CCOc1ccc(S(=O)(=O)n2c(C)nc3ccccc32)cc1	i
COc1cccc(Nc2nc(CC(C)=O)ns2)c1	0.8
Cc1ccc(C2=[N+]([O-])C(C)(C)CC2)cc1	0.2
CN(c1ccccc1C(=O)N1CCCC1)S(C)(=O)=O	i
Cc1ccc(O)c(C(=O)CC(=O)c2cccc(F)c2)c1	7.0
O=C(O)CCC1=C2c3ccccc3CCN2C(=O)CC1	i
COc1cccc(C2=NOC(C(=O)NCC3CCCO3)C2)c1 (stereo not drawn)	0.4
COc1ccc(C(=O)CCC(=O)N2CCN(c3ccc(N4CCOCC4)nn3)CC2)cc1	1.1
CCCCOc1ccccc1C1C(C(=O)OC)=CN(CC)C=C1C(=O)OC	i

By substructure, the compounds so far with bromine (2)
SMILES	H5N1 CPE
O=C(O)c1ccccc1-c1ccc(/C=c2\sc3nc4cc(Br)cnc4n3c2=O)o1	0.2
O=C(NCC1(c2ccccc2)CCCC1)c1cccc(Br)c1	4.6

(cont.)
SMILES	H5N1 CPE
COc1ccc(NCc2nnc(SCC(=O)Nc3ccccc3OC)o2)cc1	i
Cc1sc2ncnc(NCCCn3ccnc3)c2c1C	0.9
Cc1ccc(CC(CC(=O)NCCc2ccc3c(c2)OCO3)C(=O)O)cc1 (stereo not drawn)	i
CCCCn1c(C(C)O)nc2ccccc21 (stereo not drawn)	0.1
NC(=O)CNC(=O)C1CCCc2c1[nH]c1ccc(Cl)cc21 (stereo not drawn)	i
COc1ccc(OC)c(NC(=O)CN2C(=O)c3ccccc3S2(=O)=O)c1	i
COC(=O)C(NC(=O)c1ccccc1)=C1CCCCC1	i
CCOC(=O)C1=C(CS(=O)(=O)c2ccc(F)c(C)c2)NC(=O)NC1c1ccc(O)c(O)c1 (stereo not drawn)	3.4
O=S(=O)(/C=C/c1ccccc1)Oc1ccccc1	i
COc1ccc(NC(=O)c2sc(=S)[nH]c2N)cc1	i
O=c1c2ccccc2nnn1Cc1nnc(-c2ccccc2Br)o1	2.6
COC(=O)c1ccc(CN(C(C)=O)c2ccccc2)o1	1.0
COCCN1CCn2c(nc3cc(NC(=O)c4ccc(OC)cc4)ccc32)C1	1.4
Cc1ccccc1C(C(=O)NC1CCCC1)N(C(=O)Cc1cccs1)c1ccc2c(c1)OCCO2 (stereo not drawn)	i
Cc1ccc(CNC(=O)C2CCCN(S(=O)(=O)c3c(C)noc3C)C2)cc1 (stereo not drawn)	i
Cc1ccc(CN2C(=O)CCC2C(=O)NC2CCCC2)cc1 (stereo not drawn)	0.9
COc1ccc(C2C(C#N)=C(N)N3C(=C2C#N)Sc2ccccc23)cc1 (stereo not drawn)	0.5
COC(=O)c1ccccc1NC(=S)NC(=O)COc1ccccc1Cl	0.9
CCCCCCC(=O)Nc1ccc(Cl)cn1	0.4
COc1ccc(CCNC(=O)C2CC(=O)N(C3CCCCCCC3)C2)cc1OC (stereo not drawn)	0.1
CON(C)S(=O)(=O)c1ccc2c(c1)NC(=O)C1CCCN21 (stereo not drawn)	0.4
CC(C)CC(=O)N1CCN(C(=O)c2cccc(F)c2)CC1	i
Cc1cc(C(=O)NCC(c2ccco2)N(C)C)no1 (stereo not drawn)	i
CCCCc1ccc(NC(=O)N[C@H](C(=O)O)C(C)CC)cc1 (stereo partly drawn)	i
CCCn1c(N)c(N2CCCCC2)c(=O)n(CC(=O)Nc2ccccc2C)c1=O	i

Four structures out of the list, arranged by molecular weight, smallest number first.
SMILES	H5N1 CPE
O=S(=O)(/C=C/c1ccccc1)Oc1ccccc1	i
Cc1sc2ncnc(NCCCn3ccnc3)c2c1C	0.9
CON(C)S(=O)(=O)c1ccc2c(c1)NC(=O)C1CCCN21 (stereo not drawn)	0.4
Cc1ccccc1C(C(=O)NC1CCCC1)N(C(=O)Cc1cccs1)c1ccc2c(c1)OCCO2 (stereo not drawn)	i

A different layout for part of the listing above:
| Structure | H5N1 CPE |
| --- | --- |
| CC(C)CC(=O)N1CCN(C(=O)c2cccc(F)c2)CC1 | i |
| Cc1cc(C(=O)NCC(c2ccco2)N(C)C)no1 (stereo not drawn) | i |

Next compounds.
SMILES	H5N1 CPE
O=C(COC(=O)COc1ccccc1)Nc1ccc(OC(F)(F)F)cc1	i
CC(=O)N(NC(=O)c1ccccc1Cl)C1CC(=O)N(c2ccc(C)cc2)C1=O (stereo not drawn)	i
O=C(CSc1nnc(-c2ccccc2)n1Cc1ccccc1)N1CCOCC1	0.6
O=C(Nc1ccccc1C(=O)NCc1cccnc1)c1ccco1	0.1
CC(=O)c1c(N2CCCC2)[nH]c(-c2ccccc2)nc1=S	0.1
CC(=O)Nc1cc(S(=O)(=O)Nc2ccccc2)c(C)cc1C	0.8
COc1cccc(N2CCN(C3C4CC5CC(C4)CC3C5)CC2)c1 (stereo not drawn)	0.1
COc1ccc(NC(C)=O)cc1NC(C)C(=O)Nc1ccccc1F (stereo not drawn)	i
O=C(CSCCc1ccccn1)Nc1ccc(Br)cn1	i
COc1cccc(C2CC(=O)Nc3cc4c(cc32)OCCO4)c1OC(C)C (stereo not drawn)	0.9
O=C(CCNS(=O)(=O)c1cccs1)Nc1nccs1	i
Cc1ccc(NC(=O)c2oc3ccccc3c2NC(=O)c2ccc3c(c2)OCO3)cc1	i
O=C(O)c1ccccc1C(=O)NNc1ccc(F)cc1	i
COc1ccc(N2Cc3cccc(C(=O)NC(C)CCc4ccco4)c3C2=O)cc1 (stereo not drawn)	i
COc1cc(OC)cc(-c2nc(-c3ccc(Br)cc3)no2)c1	i
CCCCN(CC)Cc1ccc(CNC(=O)Nc2ccc(F)cc2)o1	i
COC(=O)C1=C(C)N(c2cccc(C)c2)C(=O)/C1=C\c1cccs1	i
Cc1nnc(NC(=O)c2c(F)cccc2F)s1	0.1
CCCSc1nc(C)c(-c2csc(C(C#N)=C3CCCC3)n2)cc1C#N	i
CCN(CC)CCn1c(NCc2cccc(OC)c2OC)nc2ccccc21	i
Nc1ccccc1SCc1cc([N+](=O)[O-])cc2c1OCOC2	4.2
Cc1c(Cl)cccc1-n1nnnc1-c1cccs1	i
Cc1ccc2c(c1)N(CC(=O)NCC1CCCO1)C(=O)C(C)O2 (stereo not drawn)	i
COc1ccccc1N1CCN(C(=O)c2oc3cc(C)c(C)cc3c2C)CC1	0.6
Cc1ccc(OCC(=O)N/N=C/c2ccncc2)cc1	0.3
(cont.)
SMILES	H5N1 CPE
Cc1c(C(=O)c2no[n+]([O-])c2C(=O)c2cnn(C)c2C)cnn1C	3.9
CCS(=O)(=O)Nc1ccc(C2=NN(S(=O)(=O)c3ccc(F)cc3)C(c3ccco3)C2)cc1 (stereo not drawn)	1.3
COC(=O)C(CCSC)NC(=O)Cn1ncc2c(=O)oc3ccccc3c21 (stereo not drawn)	0.2
CCSc1nnc(NC(=O)CSc2nc(C)cc(C)n2)s1	0.5
Cc1cc(=O)oc2cc(OC(C)C(=O)N3CCCc4ccccc43)ccc12 (stereo not drawn)	1.8
Cc1cc(C(=O)c2ccccc2)nc2ccccc12	i
CCOC(=O)c1c(C)[nH]c(O)c1C=Nc1ccccc1	i
COc1ccc(CCNC(=O)COc2ccc(-c3ccc(C)cc3)cc2)cc1OC	0.9
Cc1ccnc(N2C(=O)c3ccccc3C2Nc2ccc3c(c2)OCCO3)c1 (stereo not drawn)	i
O=C(CSc1nc2ccc([N+](=O)[O-])cc2[nH]1)c1ccc2ccccc2c1	0.7
CCOC(=O)c1cc2oc(C)cc2n1CC(=O)OC1CCCCC1	i
Cc1ccc2nc(-c3ccccn3)cc(C(=O)N3CCN(c4ncccn4)CC3)c2c1	1.4
